StopGo reporter: lowers the luciferase signal of an FMDV 2A StopGo reporter | human cells with a luciferase reporter of 2A StopGo recoding; control for the full effect not named in the record | Potency, µM (highest dose often 57.9 µM), inactives show top-dose signal change, negative = less light | 410,000 tested, 1.2% active; active = well fitted falling curve with a large enough effect; inconclusive = small, poorly fitted or top-dose-only effect; inactive = no such curve, though single readings can be large or run the other way; tested in HEK293T cells; also: % is scaled to controls: 0 for no effect and ±100 for the full control effect; nearly all actives have a fitted effect of over 45% in size; luciferase light after 4 h
RE007 growth inh: less growth of the S. pombe RE007 Vpr strain; 360,000 tested, 0.21% active; S. pombe RE007 Vpr strain, BacTiter-Glo ATP luminescence, 24 h; control for the full effect not named in the record; AID 651644; Potency, µM (series often up to 92.2 µM), inactives show top-dose activity change, negative = less growth; active = well fitted falling curve with a large enough effect; inconclusive = small, poorly fitted or top-dose-only effect; inactive = no such curve, though single readings can be large or run the other way;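 also: % is scaled to controls: 0 for no effect and ±100 for the full control effect; nearly all actives have a fitted effect of over 50% in size; the assay follows cell death caused by Vpr and the record does not say whether a fall means rescue or toxicity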
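Fission yeast strain RE007, carrying one chromosomally integrated HIV-1 vpr copy, was seeded at OD 0.01 in PMG+AL medium with 23 nL pinned compound. After 24 h at 30 °C and 99% humidity, viability was read by BacTiter-Glo luminescence.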
LASV entry inh: Lassa virus entry inhibition | AID 540256 | Potency, µM (top dose mostly 37.9 µM), inactives show top-dose activity change, negative = inhibition, hits mostly inhibitors | 300,000 tested, 1.2% active | Lassa virus pseudotype entry inhibition, cell reporter; control for the full effect not named in the record; active means well fitted inhibition curve with a large enough effect; inconclusive means small, poorly fitted or top-dose-only effect, or effect the other way; inactive means flat fitted curve, though single readings scatter; tested in HEK293 cells; also: % is scaled to controls: 0 for no effect and ±100 for the full control effect; nearly all actives have a fitted effect of over 50% in size; luciferase read-out
Cruzain inh Det: cruzain (T. cruzi) inhibition with detergent; P25779; purified cruzain, Z-FR-AMC fluorescence, 0.01% Triton; Potency, µM, for the others: max response, negative = inhibition, most hits filed as inhibitors; 200,000 tested, 0.43% active;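 also: plate controls were neutral wells for no effect and buffer without enzyme for full effect; nearly all actives have a fitted effect of over 40% in size; top concentration of the series not given in the record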
Target sequence (P25779 123-467 limits assumed): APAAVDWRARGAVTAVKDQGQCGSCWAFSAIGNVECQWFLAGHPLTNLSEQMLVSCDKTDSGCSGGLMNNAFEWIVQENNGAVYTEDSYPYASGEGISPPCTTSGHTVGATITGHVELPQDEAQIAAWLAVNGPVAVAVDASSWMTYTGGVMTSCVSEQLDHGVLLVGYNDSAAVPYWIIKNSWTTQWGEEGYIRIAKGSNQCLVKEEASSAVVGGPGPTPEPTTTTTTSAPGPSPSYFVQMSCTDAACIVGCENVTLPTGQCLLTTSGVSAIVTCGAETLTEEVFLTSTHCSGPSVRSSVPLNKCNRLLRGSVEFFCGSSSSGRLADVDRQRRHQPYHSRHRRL
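15 min RT preincubation of 1.5 nM cruzain with compound, then 2 uM Z-FR-AMC added; kinetic AMC fluorescence, 60 s delta. Triton X-100 0.01%, pH 5.5.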
SARS PLP yeast: SARS-CoV PLP inhibition in yeast. S. cerevisiae expressing SARS-CoV PLpro, growth rescue; control for the full effect not named in the record. Potency, µM (top dose mostly 32.9 µM), without a hit: top-dose activity, positive = growth rescue. 330,000 tested, 0.19% active; active means well fitted rising curve with a large enough effect; inconclusive means small, poorly fitted or top-dose-only effect; inactive means no such curve, though single readings can be large or run the other way; also: 0% is about no effect; nearly all actives have a fitted effect of over 55% in size; growth read by luminescence after 48 h
MARV entry inh: blocks Marburg virus binding to or entry into cells | Marburg virus pseudotyped entry inhibition, cell reporter; control for the full effect not named in the record; about a third of the inactives were read at about 46 µM | Potency, µM (highest dose often 37.8 µM), inactives show at the highest dose activity change, negative = inhibition, usual class: inhibitors | 300,000 tested, 1.8% active | AID 540276; active = well fitted inhibition curve with a large enough effect; inconclusive = small, poorly fitted or top-dose-only effect, or effect the other way; inactive = flat fitted curve, though single readings scatter; tested in HEK293 cells; about a fifth of its hits are not listed in these tables; also: % is scaled to controls: 0 for no effect and ±100 for the full control effect; luciferase read-out
Cruzain inh noDet: cruzain (T. cruzi) inhibition without detergent. P25779. purified cruzain, Z-FR-AMC fluorescence, no detergent. Potency, µM, without a hit: max response, negative = inhibition, hits mostly inhibitors. 200,000 tested, 2.3% active. AID 1476;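 also: plate controls were enzyme without inhibitor for no effect and buffer without enzyme for full effect; nearly all actives have a fitted effect of over 40% in size; top concentration of the series not given in the record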
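Detergent-free condition (0.00005% Triton X-100) in acetate buffer pH 5.5 with DTT. 1.5 nM enzyme and compound were pre-mixed 15 min, then 2 uM Z-FR-AMC substrate added; reaction progress from fluorescence change between first and third reads (60 s).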
NS1 function inh: inhibitors of influenza NS1 protein function. S. cerevisiae slowed by influenza A NS1, growth recovery by OD600. 270,000 tested, 0.4% active. Potency, µM (doses to about 46.1 µM), for inactives: at the highest dose activity, positive = more growth. AID 2326; active means well fitted rising curve with a large enough effect; inconclusive means small, poorly fitted or top-dose-only effect; inactive means no such curve, though single readings can be large or run the other way; also: nearly all actives have a fitted effect of over 50% in size
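In this qHTS, NS1 from influenza A is expressed in budding yeast, where it slows growth. Cells are switched from glucose to 2% galactose medium (pH 6.0, -URA), treated with compound, and growth recovery is read at OD600.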
An asterisk follows results filed as active; ? = inconclusive; / = no result given; [ ] = dose if it differs, or a comment. Unless noted, calls follow the shape of the dose curve; as a rule, active = well fitted curve in the direction sought with a large enough effect; inconclusive = small, poorly fitted or top-dose-only effect, or another doubt; inactive = no such curve, though single readings can be large; an effect the other way counts as inactive or inconclusive. Potency is read from the fitted curve at half-maximal effect. Hits appear at their usual frequency; about 4.8% have a hit in one of these screens.

SMILES	StopGo reporter	RE007 growth inh	LASV entry inh	Cruzain inh Det	SARS PLP yeast	MARV entry inh	Cruzain inh noDet	NS1 function inh
COc1ccc(NC(=O)OC(CN2CCCCC2)C(F)(F)F)cc1 (stereo not given)	-16.9%	3.5%	10.4%	3.6%	-10.3%	2.7%	10.7%	17.4%
O=C(c1cc2cc(Br)cc(Br)c2oc1=O)N1CCCC1	-21.0%	6.8%	-0.7%	-3.1%	-16.3%	4.7%	-4.6%	0.7%
Cc1c(-c2ccccc2)[n+](=O)c(-c2ccc(Cl)cc2)c(C)n1[O-]	-3.2%	1.7%	6.7%	/	-0.3%	0.5%[46.1 µM]	/	6.1%
CCC(C(=O)Nc1c(C)cc(C)cc1C)n1c(=O)c(-c2ccccc2NC(C)=O)nc2ccccc21 (stereo not given)	-9.1%	/	?	-3.2%	/	-3.6%[46.1 µM]	1.8%	/
Cc1nc2oc(C(=O)c3ccccc3)c(N)c2c2c1COC(C)(C)C2	33.8%[activator]	-5.8%	17.3%	-5.3%	15.3%	?	?	-4.9%
NC(=O)c1c(/N=C/c2cccnc2)sc2c1CCCC2	60.3%[activator]	-10.2%	17.6%	/	0.2%	-20.2%	/	-5.7%
Cc1ccc(OCC(=O)OC2CCCN(C)C2)cc1 (stereo not given)	23.9%	-3.2%	/	/	0.5%	/	/	3.5%
CC(=O)c1cccc(NC(=O)COC(=O)CCC(=O)c2cccs2)c1	-0.6%	2.3%	6.4%	/	-4.4%	8.0%	/	/
CCC(c1nnnn1CCOC)N(Cc1ccc(C)cc1)Cc1cc2cc(OC)ccc2[nH]c1=O (stereo not given)	2.1%	-13.3%	?	-10.7%	1.7%	?	?	-39.2%
COc1ccc(-c2cn[nH]c2-c2ccc(OCc3ccc(F)cc3)cc2O)cc1OC	25.1µM*	3.0%	?	/	-0.1%	?	/	8.3%
CCOC(=O)C1CCN(Cc2c(O)ccc3ccccc23)CC1	19.7%	4.8%	-7.0%	-2.5%	-6.8%	9.0%	-6.7%	-0.4%
C/C(=C\c1ccccc1)C(=O)N1CCN(Cc2ccc3c(c2)OCO3)CC1	-16.4%	-5.9%	/	/	-6.3%	/	/	-17.0%
Cc1cc(F)ccc1S(=O)(=O)Nc1ncnc2sc3c(c12)CCC3	-6.0%	24.7%	16.2%	/	-1.4%	-24.1%[46.1 µM]	/	/
CN(c1ccc(C(=O)NC2CCCCC2)cc1)S(=O)(=O)c1ccccc1	-17.4%	-6.2%	?	/	/	-6.0%	/	/
O=C(OCC(=O)c1ccc(Cl)s1)c1cnccn1	29.1%	-20.1%	4.2%	/	-6.1%	4.2%	/	-0.9%
CCCOc1ccc(N2C(=O)CC(N(Cc3ccco3)C(=O)CC)C2=O)cc1 (stereo not given)	10.6%	-11.5%	16.0%[46.1 µM]	/	0.9%	-29.3%[46.1 µM]	/	4.1%
CCN(CC)c1ccc(C=C(c2nnnn2-c2ccccc2)c2nnnn2-c2ccccc2)cc1	0.0%	3.6%	2.51µM*	-4.7%	6.9%	?	?	7.94µM*
CCCCN(C)C(=O)c1nc2ccccn2c1CN1CCN(c2cnccn2)CC1	-12.9%	11.0%	/	/	0.2%	/	/	-0.4%
CC(=O)N1CCN(C(=O)/C(C#N)=C/c2ccc3c(c2)OCO3)CC1	-8.7%	27.0%	16.3%	/	1.3%	15.1%[46.1 µM]	/	6.9%
Cc1c(Cc2ccccc2)c(=O)n2c([nH]c3ccccc32)c1C#N	?	-4.7%	/	/	-4.1%	/	/	-67.0%
CN(C)S(=O)(=O)N1CCN(c2cccc(Cl)c2)CC1	-22.3%	-5.5%	?	-2.8%	2.0%	4.8%	-15.6%	-4.1%
CCOCCCn1c(C)nc2c(c1=O)c1nc3ccccc3nc1n2-c1ccc(C)cc1	15.4%	0.5%	14.5%	0.2%	-0.9%	0.3%	?	-15.3%
COc1cc(C(=O)Nn2cnnc2)ccc1OC(F)F	-18.1%	14.6%	/	/	-2.9%	/	/	3.2%
O=C(Nc1ccccc1)/C(=C\c1ccc2c(c1)OCO2)NC(=O)c1ccco1	/	5.0%	1.1%	2.3%	5.7%	-3.4%	5.2%	-13.6%
CCOc1ccc(N2CC(NC(=O)Cc3cccs3)CC2=O)cc1 (stereo not given)	-2.1%	/	-0.2%[46.1 µM]	-1.3%	/	/	-3.3%	/

Part of the list above, in CSV form:
Molecule,StopGo reporter,RE007 growth inh,LASV entry inh,Cruzain inh Det,SARS PLP yeast,MARV entry inh,Cruzain inh noDet,NS1 function inh
CN(c1ccc(C(=O)NC2CCCCC2)cc1)S(=O)(=O)c1ccccc1,-17.4%,-6.2%,?,/,/,-6.0%,/,/
O=C(OCC(=O)c1ccc(Cl)s1)c1cnccn1,29.1%,-20.1%,4.2%,/,-6.1%,4.2%,/,-0.9%

(cont.)
SMILES	StopGo reporter	RE007 growth inh	LASV entry inh	Cruzain inh Det	SARS PLP yeast	MARV entry inh	Cruzain inh noDet	NS1 function inh
COc1ccc(/C=N/NC(=O)c2cc(C)oc2C)cc1OC	10.7%	7.2%	8.4%[46.1 µM]	/	-0.6%	?	/	3.8%
COc1ccc(-c2nc(SCC(=O)NC3CCCC3)c(-c3ccc(F)cc3)[nH]2)cc1	-4.6%	/	-25.8%[46.1 µM]	-8.1%	/	?	?	/
Cc1nc(N)sc1C(=O)Nc1ccccc1	21.8%	-12.7%	?	1.8%	-4.5%	?	-0.1%	-0.8%
Cn1c(=O)n(C)c2cc(/C=N/NC(=S)NCc3ccccc3)ccc21	-28.9%	2.5%	-16.8%	11.2µM*	15.9%	?	?	29.8%
O=C(NCCC1CCCCN1S(=O)(=O)c1ccccc1)C(=O)NCc1ccccc1F (stereo not given)	0.0%	-6.5%	-19.7%	/	-7.4%	?	/	/
CCc1nnc(NS(=O)(=O)c2ccc(NC(=O)c3cc(Cl)ccc3OC)cc2)s1	-11.4%	-4.1%	/	/	1.0%	/	/	13.3%
CC(C)(C)n1nnnc1C(c1ccccn1)N1CCN(C(c2ccccc2)c2ccccc2)CC1 (stereo not given)	2.0%	-10.4%	24.9%[46.1 µM]	/	-0.4%	11.1%[46.1 µM]	/	-6.0%
O=C(NC1c2ccccc2-c2ccccc21)c1ccccc1	-17.4%	6.4%	-12.0%	2.4%	12.9%	11.6%	?	21.4%
O=P(O)(O)C#Cc1ccccc1	/	/	/	2.5%	-3.8%	-1.9%	0.3%	4.8%
O=C1NC(=O)N(Cc2ccc(F)cc2)C(=O)/C1=C\c1ccoc1	-28.4%	20.1%	-13.5%	/	-0.4%	9.8%[46.1 µM]	/	7.2%
COc1ccc2c(=O)c3c(=O)n(Cc4ccco4)c(C4CCCCC4)nc3oc2c1	/	/	/	-2.3%	2.9%	-0.6%	0.0%	1.1%
CC(=O)NC(Cc1ccc(F)cc1)C(=O)NC1CCN(C(=O)Nc2ccc(F)cc2)CC1 (stereo not given)	-3.4%	-3.7%	/	/	1.7%	16.9%[46.1 µM]	/	-3.3%
Cc1ccc(S(=O)(=O)CCC(=O)OCC(=O)NCCc2ccc(F)cc2)cc1	-2.6%	-5.5%	0.9%	/	-0.4%	?	/	/
CCC(=O)c1ccc(OCC(=O)OCC(=O)NCCC2=CCCCC2)cc1	-20.1%	-2.5%	6.8%	/	-2.8%	?	/	/
Cc1ccc2[nH]c(=S)cc(C)c2c1	11.0%	-1.9%	0.9%	-3.1%	22.4µM*	14.7%	2.6%	-8.0%
Cc1oc2cc(O)ccc2c(=O)c1Oc1ccccc1Br	0.0%	-4.0%	/	-3.2%	-9.5%	/	-5.1%	-50.2%
CC(=O)Oc1ccccc1-c1nc(C)nc(N(C)C(C)=O)n1	4.7%	0.0%	3.1%	-0.1%	-3.7%	12.2%	-1.9%	-0.4%
CCOC(=O)c1noc(C)c1C(=O)Nc1nccs1	2.4%	-5.7%	14.7%[46.1 µM]	/	-0.9%	18.8%[46.1 µM]	/	0.5%
COc1ccccc1N1CCN(C(=O)c2cccc(NC3=NC4CS(=O)(=O)CC4S3)c2)CC1 (stereo not given)	-18.6%	1.5%	/	/	-0.2%	/	/	-7.4%
Cc1ccc(C(c2nnnn2CS(=O)(=O)c2ccc(C)cc2)N2CCCC2)cc1 (stereo not given)	12.4%	4.1%	/	/	0.4%	/	/	6.8%
CC(C)Oc1ccc(C(=O)N(Cc2ccc(N(C)C)cc2)Cc2ccco2)cc1	-10.5%	/	?	-9.2%	/	-23.9%[46.1 µM]	-0.4%	/
Cc1sc(NC(=O)C2CCCO2)c(C#N)c1C (stereo not given)	67.0%[activator]	2.1%	-6.4%	-6.7%	2.0%	?	-11.0%	6.3%
C[C@H]1C(=O)N(C)CCN1Cc1cn(C)nc1-c1ccc(Oc2ccccc2)cc1	-24.5%	-8.7%	-14.3%[46.1 µM]	/	-0.3%	?	/	-1.8%

Single records, as listed above. Values in the order: StopGo reporter	RE007 growth inh	LASV entry inh	Cruzain inh Det	SARS PLP yeast	MARV entry inh	Cruzain inh noDet	NS1 function inh
O=P(O)(O)C#Cc1ccccc1 in the list: /	/	/	2.5%	-3.8%	-1.9%	0.3%	4.8%
CCOc1ccc(N2CC(NC(=O)Cc3cccs3)CC2=O)cc1 (stereo not given) in the list: -2.1%	/	-0.2%[46.1 µM]	-1.3%	/	/	-3.3%	/
CC(C)Oc1ccc(C(=O)N(Cc2ccc(N(C)C)cc2)Cc2ccco2)cc1 in the list: -10.5%	/	?	-9.2%	/	-23.9%[46.1 µM]	-0.4%	/
COc1ccc(-c2nc(SCC(=O)NC3CCCC3)c(-c3ccc(F)cc3)[nH]2)cc1 in the list: -4.6%	/	-25.8%[46.1 µM]	-8.1%	/	?	?	/
O=C(Nc1ccccc1)/C(=C\c1ccc2c(c1)OCO2)NC(=O)c1ccco1 in the list: /	5.0%	1.1%	2.3%	5.7%	-3.4%	5.2%	-13.6%

Compound activity from PubChem BioAssay.
